MARV entry inh – Marburg virus entry inhibition | Potency, µM (top dose mostly 37.8 µM), for the others: at the highest dose activity change, negative = inhibition, hits mostly inhibitors | Marburg virus pseudotyped entry inhibition, cell reporter; control for the full effect not named in the record; about a third of the inactives were read at about 46 µM | actives 1.8% (n = 300,000); active = well fitted inhibition curve with a large enough effect; inconclusive = small, poorly fitted or top-dose-only effect, or effect the other way; inactive = flat fitted curve, though single readings scatter; tested in HEK293 cells; about a fifth of its hits are not listed in these tables; also: luciferase read-out
Starred values were filed as active, the others as inactive; ? = inconclusive; & = joins results of further samples; [ ] = dose if it differs, or a comment. % is scaled to controls: 0 for no effect and ±100 for the full control effect; potency is read from the fitted curve at half-maximal effect. This is a subset (hit frequency here may not be typical).

SMILES	MARV entry inh
COc1ccc2c(c1)CO[C@H]([C@H](O)CO)[C@H]2C=CC#Cc1ccc(C(C)(C)C)cc1	-9%[14.2 µM]
COc1ccc(-c2nc3c(c4c2C[C@H](c2ccccc2)OC4)CN(C(=O)C2CC2)CC3)c(C)c1	-9%&-9%&-9%&-29%[14.2 µM]
Cc1cccc(N2CN=c3s/c(=C/c4ccncc4)c(=O)n3C2)c1	-1%
COC1=C[C@H](C(=O)NCCOC(C)=O)[C@H](C)[C@@H](c2ccccc2)CC1=O	-39%[14.2 µM]
CCCCNc1cccc2c1S(=O)(=O)N[C@@H](CC(C)C)CO2	?
O=c1n(-c2ccccc2)c(=O)n2n1CC[C@H]1/C(=N\OC[C@@H](O)COCc3ccco3)[C@H]3O[C@@H]3[C@@H](O)[C@@H]12	-23%&-23%[14.2 µM]
C[C@H]1CC[C@H]2C(=O)N[C@H](Cc3ccccc3)C(=O)N2[C@H]1c1ccccc1	-17%[14.2 µM]
CCN1C(=O)[C@H]2[C@H]3[C@H](O)[C@H](O)C/C(=N\OC[C@@H](O)COCc4ccco4)[C@@H]3CC[C@H]2C1=O	34%&34%[14.2 µM]
C=CCNc1nnc(S[C@@H]2CC(=O)N(c3ccc(OC)cc3)C2=O)s1	-8%
O=S1(=O)c2cc(Cl)ccc2Oc2ccccc2CN1Cc1cccc(F)c1	?
C=CCN1CC(COc2ccc(OC)cc2)OCCS1(=O)=O (configuration not stated)	?
CC(C)CON=C1C[C@@H](O)[C@@H](O)[C@@H]2[C@H]3C(=O)N(C[C@@H]4CCCO4)C(=O)[C@@H]3CC[C@@H]12	10%[14.2 µM]
COc1ccc(-c2ccc3c(n2)CCCN3C[C@H](O)CN2CCCc3nc(C)c(C)cc32)cc1	?
COC(=O)[C@@]1(C=C2c3ccc(OC)cc3[C@@H](OC)[C@@H]2C)[C@@H]2C=CC[C@@H]21	-11%[14.2 µM]
CC(=O)/C(C#N)=C1\NC(=O)[C@@H](Cc2ccccc2)S1	2.5µM*
CC1(C)CN(CCc2ccccc2)C(=O)[C@@H]1CC(=O)Nc1ccc(Br)cc1	?
COC(=O)CC1=C(C(=O)OC)[C@H](c2ccc3c(c2Cl)OCO3)C(C#N)=C(N)O1	7%
CCOC(=O)CN1C(=O)NC(c2ccc(Br)cc2)C(C(=O)OC)=C1C (configuration not stated)	-10%[14.2 µM]
CCC(C)CN1C(=O)NC(CCc2ccccc2)C(C(C)=O)=C1C (configuration not stated)	-18%[14.2 µM]
COC(=O)[C@@](NC(C)=O)(Nc1ccccn1)C(F)(F)F	4%
C=CC1=C2C=C(C3CC3)N(Cc3ccccc3)C=C2C(=O)C(C)(OC(=O)c2ccco2)C1=O (configuration not stated)	-1%&-1%[14.2 µM]
CC(C)C[C@H]1COc2c(Cl)cccc2S(=O)(=O)N1Cc1ccc(F)cc1	?
O=C(C/C(=N\O)c1ccccc1O)C(F)F	1%
CC(C)C1=Nc2nc(N)nn2C(=O)C1	4%
CCN1C(=NCc2ccccc2)NC(c2cccc(C(F)(F)F)c2)C(C(=O)OC)=C1C (configuration not stated)	-22%[14.2 µM]
Going on with the list.
SMILES	MARV entry inh
C=CCNC(=O)N1CCc2nc(CCCC)c3c(c2C1)CO[C@@H](C)C3	-18%&-18%&-18%[14.2 µM]
N[C@H](Cc1cccc(-c2ccccc2CP(=O)(O)O)c1)C(=O)O	6%
C#CCCCO/N=C1/C[C@@H](O)[C@@H](O)[C@@H]2[C@@H]3C(=O)N(Cc4ccccc4)C(=O)[C@H]3CC[C@H]12	11%[14.2 µM]
CCN1C(=O)NC(c2ccco2)C(C(C)=O)=C1C (configuration not stated)	26%[14.2 µM]
Cc1cc(C(F)(F)F)nn1CC(=O)NC[C@H]1CCCO1	3%
COC(=O)N[C@@H](c1cccc(F)c1)[C@]1(C(=O)OC)CCCC1=O	3%[14.2 µM]
CCCCc1cc2c(cn1)=C(OC(=O)c1cccs1)C(C)(OC(=O)CC)C(=O)C=2 (configuration not stated)	28%&28%[14.2 µM]
C[C@@H](c1ccccc1)N1C(=O)[C@@H]2[C@H]3[C@H](O)[C@H](O)CC(=NNC(=O)OCc4ccccc4)[C@@H]3CC[C@H]2C1=O	-18%[14.2 µM]
COC(=O)CC=C[C@@H](C)[C@H](OC)c1cc(F)ccc1Br	?
C=C(C)C(O)C=Cc1ccccc1OC (configuration not stated)	6%[14.2 µM]
COC(=O)CN1[C@@]2(C#N)CCCC[C@@H]2C[C@H]2CCCC[C@]21C#N	15%
COC1CCC(c2nnsc2N2C(=O)C3=C(CCCC3)C2=O)CC1 (configuration not stated)	10%[46.1 µM]
CCN1CCCC1CNC(=O)C1=C(OC)CC(N(C)C)=C(NC(C)=O)C1 (configuration not stated)	-21%
CC1(O)C(=O)C=C2C=C(CCCCOCc3ccccc3)OC=C2C1=O (configuration not stated)	?
COc1cccc(/C(O)=C2\C(=O)C(=O)N(c3ccccn3)[C@H]2c2ccccc2OC)c1	1%
CC1(C)O[C@H]2OC([C@H](O)CON3C(=O)c4ccccc4C3=O)[C@H](O)[C@@H]2O1 (some centres not stated)	?
COc1cc(CCN2C(=O)NC(c3ccccc3)C(C(C)=O)=C2C)cc(OC)c1OC (configuration not stated)	6%[14.2 µM]
COC1=C(C2C(OC)CCC3CCCCC32)C2=C(CCCC2)CC1 (configuration not stated)	6%[14.2 µM]
CC(C)(C)c1ccc(O[C@@H]2[C@H](O)CO[C@@H]2C=CC#Cc2ccccc2)cc1	-9%[14.2 µM]
CC#CCN1c2ccccc2[C@]23CCC(=O)N(Cc4ccco4)C2=NC(C(=O)OC)=C(C(=O)OC)[C@H]13	-44%[14.2 µM]
COCc1[nH]nc2c1[C@@H](c1sccc1C)C(C#N)=C(N)O2	-12%
C[C@]12C[C@@](C)(C=C1C=Cc1ccccc1)C(=O)C[C@H]2c1ccccc1	3%[14.2 µM]
C[C@@H]1CC[C@@H]2C(=O)N3[C@@H](CC[C@@H](C)[C@@H]3c3ccc(-c4ccco4)cc3)C(=O)N2[C@H]1c1ccc(-c2ccco2)cc1	-2%[14.2 µM]
COCCN1C(=O)C2=C(C1=O)C1N(C)c3ccccc3[C@@]13C[C@@H](CO)N(C(C)=O)C3=N2 (some centres not stated)	14%[14.2 µM]
COC(=O)c1ccc(CN2C(=O)[C@]3(O[C@H](C)CC4=CCCC43)c3c(Br)cccc32)cc1 (some centres not stated)	5%[14.2 µM]
Next section
SMILES	MARV entry inh
CC(=O)OC[C@H]1O[C@H](CC=NOC[C@@H](O)COCc2ccco2)C=C[C@H]1OC(C)=O	1%[14.2 µM]
C[C@H]1Cc2c(COc3ccccc3)nc3c(c2CO1)CN(C(=O)c1cc(I)ccc1F)CC3	-26%&-26%[14.2 µM]
COC(=O)[C@H](c1ccccc1)N1CCCCCC1	10%[46.1 µM]
CC(C)=CCC/C(C)=C/CO/N=C1/C[C@@H](O)[C@@H](O)[C@@H]2[C@@H]3C(=O)N(C[C@@H]4CCCO4)C(=O)[C@H]3CC[C@H]12	-5%[14.2 µM]
Cc1ccc(S(=O)(=O)N[C@@H]2COC(=O)[C@@H](C)COC(=O)CC=C[C@H]2C)cc1	7%[14.2 µM]
O=C1CCC=C1[C@@H](O)CCc1ccccc1	34%[14.2 µM]
COc1ccc(O[C@H]2C=C[C@@H](c3ccccc3)O[C@H]2COC(=O)CCC(C)=NO[C@H](C)CN2CCCc3nc(C)c(C)cc32)cc1	-24%[14.2 µM]
N#CC1=C(SCC(=O)c2ccc(Br)cc2)NC2=C(C(=O)CCC2)[C@H]1c1ccco1	8.9µM*
CCOC(=O)[C@@]1([C@@H](NC(=O)OC)c2cccc(C)c2)CCCC1=O	26%[14.2 µM]
CC(C)CO/N=C1/C[C@@H](O)[C@@H](O)[C@@H]2[C@@H]3C(=O)N(C[C@@H]4CCCO4)C(=O)[C@H]3CC[C@H]12	10%[14.2 µM]
CC[C@@]1(C)Cc2c(sc3c2c(=O)n(C)c2nnc(SCc4ccccc4)n32)CO1	-1%
C#CCCCO/N=C1\C[C@@H](O)[C@@H](O)[C@@H]2[C@@H]3C(=O)N(C4CCCCC4)C(=O)[C@@H]3CC[C@H]12	?
C#CC[C@@]1(C(=O)OC)C=C[C@@H](C)[C@H](c2ccccc2Br)N1C(=O)C(F)(F)F	-2%[14.2 µM]
CC(C)C[C@H](CO)NS(=O)(=O)c1cccc(Cl)c1F	?
COc1ccc([C@]23Cc4cc(OC)c(OC)cc4[C@H](O2)c2c(c4ccccc4oc2=O)O3)cc1	?
CCN1C(=NCc2ccc3c(c2)OCO3)NC(c2ccccc2)C(C(=O)OC)=C1C (configuration not stated)	-18%[14.2 µM]
CCCCn1c(C)cc2c(c1=O)[C@H]1O[C@](c3ccsc3)(Cc3cc(OC)c(OC)cc31)O2	?
O=C(OCc1cn([C@H]2C[C@H](c3ccc(Cl)cc3)N(Cc3cccs3)C[C@H]2O)nn1)c1ccccc1	?
C[C@@H]1CC[C@H]2C(=O)N(Cc3ccc(Cl)cc3)C[C@@H](O)CN2[C@@H]1c1ccc(Br)cc1	-15%[14.2 µM]
CC1(C)NC(=O)N(C[C@@H](O)Cn2nnc3ccccc32)C1=O	-13%[46.1 µM]
CCOC(=O)CSC1=C(C#N)[C@H](c2ccc(C)cc2)[C@H](C(=O)OC)C(=O)N1	-15%[46.1 µM]
O=C1OC(=O)[C@@H]2[C@@H]1[C@@H]1CC[C@H]2O1	?
COC(=O)[C@](O)(c1c[nH]c2ccccc12)C(F)(F)F	3%
CC#CCN1c2ccccc2[C@]23CCC(=O)N(Cc4cccc(C(F)(F)F)c4)C2=NC(C(=O)OC)=C(C(=O)OC)[C@H]13	19%[14.2 µM]
CN(C)CCCN1C(=O)C(O)=C(C(=O)c2cc3ccccc3o2)[C@@H]1c1ccccc1	11%
Carrying on:
SMILES	MARV entry inh
COC(=O)C1=C(C)OC(N)=C(C#N)[C@H]1c1ccc(OC)c(OC)c1OC	7%
COC(=O)[C@@H]1CC[C@H](C)[C@@H](c2ccc(C)cc2)N1C(=O)c1ccc(C=NOC[C@H]2O[C@H](c3ccccc3)C=C[C@H]2Oc2ccc(OC)cc2)cc1	-7%[14.2 µM]
O[Si@](CCCN1CCCCC1)(c1ccc(F)cc1)C1CCCCC1	?
CCCc1[nH]nc2c1[C@@H](c1cccc(OC)c1)C(C#N)=C(N)O2	4%
COc1cccc(/C(O)=C2\C(=O)C(=O)N(CCN(C)C)[C@@H]2c2ccc(Br)cc2)c1	0%[46.1 µM]
Cc1cc2c(nc1C)CCCCN2C[C@H](C)ON=C[C@@H](C)[C@H](OCc1ccccc1)C(C)C	?
CC(=O)[C@@]1(C)OC(N)=C(C#N)[C@@H](c2ccccc2)C1(C#N)C#N	0%
CC1=C[C@@H](COCc2ccccc2)O[C@@]2(C1)C(=O)N(Cc1ccccc1C(F)(F)F)c1ccccc12	5%[14.2 µM]
COC(=O)C1=C(C)N=C2S[C@@H](C)C(=O)N2[C@H]1c1cccs1	6%
C[C@@H]1CC[C@H]2C(=O)N(Cc3ccc(Cl)cc3)C[C@@H](O)CN2[C@H]1c1cccc(Br)c1	?
COC(=O)C1=C(C(=O)OC)[C@@H]2N(C)c3ccccc3[C@@]23C[C@@H](C(=O)OC)N(C(=O)NC2CCCC2)C3=N1	?
COc1ccc(OC[C@H]2CN3[C@@H](CC[C@@H](C)[C@@H]3c3ccc(Br)cc3)C(=O)O2)cc1	-7%[14.2 µM]
CCCC[S@@](=N)(=O)CC[C@@H](N)C(=O)O	7%&7%
COc1cc(C(CC2=CCCCC2)NC(=O)C(F)(F)F)cc(OC)c1OC (configuration not stated)	1%[14.2 µM]
C=CCC1(O)C=CCC2C3C4C(OC(C)(C)C)C2C1C34 (configuration not stated)	?
COC(=O)CC=C[C@@H](C)[C@@H](COc1ccccc1Br)OC	12%[14.2 µM]
CCCCCCCCCCCCCCCCCC(=O)O[C@H](CC(=O)O)C[N+](C)(C)C	18%
CCOC(=O)OC[C@H]1O[C@H](C#Cc2ccccc2)C=C[C@@H]1OC(=O)OCC	?
C[C@H]1[C@H](c2ccccc2)Oc2ccc(Cl)cc2S(=O)(=O)N1C[C@@H]1CCCN1C(=O)OC(C)(C)C	?

Ordered by number of heavy atoms (lowest first): 14 of the compounds above.
SMILES	MARV entry inh
CCCC[S@@](=N)(=O)CC[C@@H](N)C(=O)O	7%&7%
C=CCC1(O)C=CCC2C3C4C(OC(C)(C)C)C2C1C34 (configuration not stated)	?
COC(=O)C1=C(C)N=C2S[C@@H](C)C(=O)N2[C@H]1c1cccs1	6%
CCCc1[nH]nc2c1[C@@H](c1cccc(OC)c1)C(C#N)=C(N)O2	4%
O[Si@](CCCN1CCCCC1)(c1ccc(F)cc1)C1CCCCC1	?
COC(=O)C1=C(C)OC(N)=C(C#N)[C@H]1c1ccc(OC)c(OC)c1OC	7%
COc1cc(C(CC2=CCCCC2)NC(=O)C(F)(F)F)cc(OC)c1OC (configuration not stated)	1%[14.2 µM]
C[C@@H]1CC[C@H]2C(=O)N(Cc3ccc(Cl)cc3)C[C@@H](O)CN2[C@H]1c1cccc(Br)c1	?
CCCCCCCCCCCCCCCCCC(=O)O[C@H](CC(=O)O)C[N+](C)(C)C	18%
Cc1cc2c(nc1C)CCCCN2C[C@H](C)ON=C[C@@H](C)[C@H](OCc1ccccc1)C(C)C	?
C[C@H]1[C@H](c2ccccc2)Oc2ccc(Cl)cc2S(=O)(=O)N1C[C@@H]1CCCN1C(=O)OC(C)(C)C	?
CC1=C[C@@H](COCc2ccccc2)O[C@@]2(C1)C(=O)N(Cc1ccccc1C(F)(F)F)c1ccccc12	5%[14.2 µM]
COC(=O)C1=C(C(=O)OC)[C@@H]2N(C)c3ccccc3[C@@]23C[C@@H](C(=O)OC)N(C(=O)NC2CCCC2)C3=N1	?
COC(=O)[C@@H]1CC[C@H](C)[C@@H](c2ccc(C)cc2)N1C(=O)c1ccc(C=NOC[C@H]2O[C@H](c3ccccc3)C=C[C@H]2Oc2ccc(OC)cc2)cc1	-7%[14.2 µM]

Some of these compounds in order of length of the SMILES, rising:
SMILES	MARV entry inh
CCCC[S@@](=N)(=O)CC[C@@H](N)C(=O)O	7%&7%
O[Si@](CCCN1CCCCC1)(c1ccc(F)cc1)C1CCCCC1	?
C[C@H]1[C@H](c2ccccc2)Oc2ccc(Cl)cc2S(=O)(=O)N1C[C@@H]1CCCN1C(=O)OC(C)(C)C	?
